# KCNQ2 inh – KCNQ2 potassium channel inhibitors, primary screen, cell-based, CHO-K1, FluxOR thallium flux, B-score (AID 2156); hit rate 1.1% among 310,000; B-score at 10 µM; O88943; 20 min; stronger effect = lower value; only compounds with negative scores are shown here; some inactives read as strong as hits;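 active = fluorescence ratio B-score at most minus 3 library SDs, with starting brightness B-score within 2 library SDs, cut at about -5.5 in these data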
# Target sequence (O88943 whole entry, looked up): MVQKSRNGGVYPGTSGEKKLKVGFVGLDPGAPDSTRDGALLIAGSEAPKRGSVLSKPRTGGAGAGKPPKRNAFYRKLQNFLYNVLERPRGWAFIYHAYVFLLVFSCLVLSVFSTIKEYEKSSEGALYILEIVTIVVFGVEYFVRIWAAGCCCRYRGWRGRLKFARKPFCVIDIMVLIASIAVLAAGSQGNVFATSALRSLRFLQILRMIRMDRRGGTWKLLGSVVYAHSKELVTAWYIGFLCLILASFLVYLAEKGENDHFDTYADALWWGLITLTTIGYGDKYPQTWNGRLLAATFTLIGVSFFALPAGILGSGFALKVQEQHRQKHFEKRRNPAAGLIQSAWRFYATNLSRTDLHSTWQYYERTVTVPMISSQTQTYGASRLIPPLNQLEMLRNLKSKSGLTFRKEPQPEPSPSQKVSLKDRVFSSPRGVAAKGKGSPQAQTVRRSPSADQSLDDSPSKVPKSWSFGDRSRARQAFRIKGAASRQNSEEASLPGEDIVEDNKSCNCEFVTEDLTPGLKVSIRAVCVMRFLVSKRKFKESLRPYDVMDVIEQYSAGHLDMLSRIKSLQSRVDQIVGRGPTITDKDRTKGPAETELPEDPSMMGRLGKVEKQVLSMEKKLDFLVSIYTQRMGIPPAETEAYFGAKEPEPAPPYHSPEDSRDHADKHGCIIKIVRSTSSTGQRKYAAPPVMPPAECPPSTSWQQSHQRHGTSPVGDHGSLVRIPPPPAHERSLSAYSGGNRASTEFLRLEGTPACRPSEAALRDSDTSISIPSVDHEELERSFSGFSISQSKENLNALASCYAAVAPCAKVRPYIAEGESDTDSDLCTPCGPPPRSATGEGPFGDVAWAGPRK
# KCNQ2 inh baseline – also measured in KCNQ2 inh; calls as there; B-score; measured here: initial fluorescence intensity artifact check;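 brightness before thallium and not channel activity; 0 = typical well and far values either way flag optical interference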
# An asterisk follows results filed as active; i = inactive. The list is partial; count on the stated rates, not on these rows.
SMILES,KCNQ2 inh,KCNQ2 inh baseline
Cn1c(=O)c2c(ncn2CC(=O)N/N=C/c2c[nH]c3ccccc23)n(C)c1=O,i,0.04
CN1C(=O)c2ccccc2Sc2ccc(NC(=O)NC3CC3)cc21,i,-0.43
O=C(NCc1ccco1)c1cnc2sccn2c1=O,i,-1.1
Cc1ccccc1OCC(=O)NNC(=O)c1cc(S(=O)(=O)N(C)C)ccc1N1CCCC1,i,1.1
CCOc1ccc(NC(=O)C2CC(=O)N(C)C(=Nc3ccc4c(c3)OCO4)S2)cc1 (stereo not drawn),i,1.6
CCN(CC)C(=O)Cn1c(=O)n(-c2ccccc2)c(=O)c2c3c(sc21)CCC3,i,-0.2
C[C@H](NC(=O)[C@H]1N2C(=O)c3ccccc3C2SC1(C)C)C(=O)N1CCCCC1 (stereo partly drawn),i,-0.89
Cc1ccc(N2CC(C(=O)Nc3cc(Cl)ccc3-n3cncn3)CC2=O)cc1 (stereo not drawn),i,0.48
Cc1ccc(N2CC(NS(=O)(=O)c3cccnc3)CC2=O)cc1 (stereo not drawn),i,1
COc1cc2c(cc1OC)CN(c1nc(CN3CCOCC3)nc3sc4c(c13)CCCC4)CC2,i,-0.91
S=C1NCN(CCc2ccccc2)CN1,i,1.3
O=C(CN1CCN(c2ccccn2)CC1)N1c2ccccc2Sc2ccc(C(F)(F)F)cc21,i,0.27
Cc1nc(NC(=O)c2c(-c3ccccc3)noc2C)sc1C(=O)N(C)C,i,0.32
Cc1c(C(=O)N2CCCC2)c(S(=O)(=O)Nc2ccccc2)c(C)n1C,i,-1.7
COC(=O)C1(CCSC)NC(c2ccc(O)c(OC)c2)C2C(=O)N(c3ccc(C)cc3)C(=O)C21 (stereo not drawn),i,0.42
O=C(O)c1ccc(Nc2nc3c(s2)CCCC3)cc1,i,-0.6
CC1=NN(C(=O)CCc2ccccc2)C(O)(c2ccncc2)C1 (stereo not drawn),i,0.39
Cc1ccc(CNS(=O)(=O)c2c(N)n(C)c(=O)n(C)c2=O)cc1,i,-1.3
CC1CCN(C(=O)COC(=O)c2nn(C)c(=O)c3ccccc23)CC1,i,-0.45
CCOc1ccc(NC(=O)c2cc3cc4ccc(OC)cc4nc3o2)cc1,i,0.37
CCOCCCn1c(=N)c(C(N)=S)cc2c(=O)n3cccc(C)c3nc21,i,1.7
CCOc1ccc(NC(=O)C2CCCN(c3c(CC)c(C)nc4ncnn34)C2)cc1 (stereo not drawn),i,3
Cc1cccc(C(=O)Nc2nnc(S(=O)(=O)N3CCOCC3)s2)c1,i,-0.73
Cc1cccc(OCC(O)Cn2c(=N)n(CCN3CCCCC3)c3ccccc32)c1 (stereo not drawn),i,-1.5
COc1ccc(CC(=O)OCc2cc3ccc(C)cc3[nH]c2=O)cc1,i,0.53
CCOC(=O)C[n+]1c(C)sc2ccc(OC)cc21,i,-0.43
CC(C)N1CCC(NC(=O)NC2CCCCC2)CC1,i,-0.89
Cc1ccc(NC(=O)CN(C)C(=O)c2ccccc2OCc2c(C)noc2C)cc1,i,-2.7
COc1ccc(Cl)cc1NC(=S)Nc1cccc(C)c1,i,1.9
Cc1ccc(OCC(=O)N(C)CC(=O)Nc2ccc(N3CCOCC3)cc2)cc1,i,-1.1
O=C(/C=C/c1ccc(-c2ccc(F)cc2)o1)N1CCCC1,i,0.05
O=C(CSc1ncn[nH]1)Nc1cc(S(=O)(=O)N2CCCC2)ccc1Cl,i,0.28
CCCCOc1ccc(C(=O)NNC(=O)C2C3C=CC(C3)C2C(=O)O)cc1 (stereo not drawn),i,0.08
CCC(C)C(NC(=O)[C@@H](NC(=O)c1ccccc1F)C(C)C)C(=O)OC (stereo partly drawn),i,0.35
O=C(NCc1cccnc1)c1cccc(F)c1,i,-0.06
Cc1nc(-c2ccc(S(=O)(=O)Oc3ccc(Cl)cc3Cl)s2)cs1,i,0.52
c1ccc(CSc2nnc3ccc(-c4ccncc4)nn23)nc1,i,-1.9
Cc1ccc(-c2csc3nnc(SCc4csc(C)n4)n23)cc1,i,-0.62
O=C(c1ccc2nc(-c3ccccc3)c(-c3ccccc3)nc2c1)N1CCCCC1,i,0.89
C/C(=N\N(Cc1ccccc1)c1ccccc1)c1cccnc1,i,0.2
CCCCCCn1c(C)nc2c(c1=O)c1nc3ccccc3nc1n2/N=C/c1ccco1,i,0.89
Cc1c(NC(=O)c2ccc3c(c2)OCO3)cccc1-c1nc2ccccc2s1,i,0.89
O=C(Nc1ccc(S(=O)(=O)N2CCCC2)cc1)Nc1ccc(F)cc1F,i,-0.94
O=C(O)CCCC(=O)Nc1ccc(C(=O)N2CCCCC2)cc1,i,2.3
O=C(NC1CCCCC1)C(c1cc2c(cc1[N+](=O)[O-])OCO2)N1CCCCC1 (stereo not drawn),i,-0.99

# As a short view, some entries already given:
SMILES,KCNQ2 inh,KCNQ2 inh baseline
Cn1c(=O)c2c(ncn2CC(=O)N/N=C/c2c[nH]c3ccccc23)n(C)c1=O,i,0.04
CN1C(=O)c2ccccc2Sc2ccc(NC(=O)NC3CC3)cc21,i,-0.43
O=C(NCc1ccco1)c1cnc2sccn2c1=O,i,-1.1
Cc1ccccc1OCC(=O)NNC(=O)c1cc(S(=O)(=O)N(C)C)ccc1N1CCCC1,i,1.1
CCOc1ccc(NC(=O)C2CC(=O)N(C)C(=Nc3ccc4c(c3)OCO4)S2)cc1 (stereo not drawn),i,1.6
CCN(CC)C(=O)Cn1c(=O)n(-c2ccccc2)c(=O)c2c3c(sc21)CCC3,i,-0.2
C[C@H](NC(=O)[C@H]1N2C(=O)c3ccccc3C2SC1(C)C)C(=O)N1CCCCC1 (stereo partly drawn),i,-0.89

# (list continues)
SMILES,KCNQ2 inh,KCNQ2 inh baseline
O=[N+]([O-])CC1(n2nc3ccccc3n2)CCCCC1,i,1.2
Cc1ccc(/C(O)=C2/C(=O)C(=O)N(c3ccccn3)C2c2cccc([N+](=O)[O-])c2)cc1 (stereo not drawn),i,0.07
COc1ccc(CCNC(=O)c2ccc(CNc3nc(=S)[nH]c4ccccc34)cc2)cc1OC,i,-0.01
COc1cccc(NC(=O)C2CCN(C(=O)[C@@H]3Cc4ccccc4CN3C(=O)OC(C)(C)C)CC2)c1,i,-0.83
CN(C)Cc1c(O)ccc2cc(-c3nc4ccccc4n3C)c(=O)oc12,i,4.1
COC(=O)CSc1nc2ccccc2c(=O)n1Cc1ccccc1,i,0.83
Cc1cccc(COCC(Cc2ccccc2)N2CCN(C(=O)c3cccc(Cl)c3)CCC2=O)c1 (stereo not drawn),i,0.71
Cc1ccc(C)c(S(=O)(=O)N2CCCOC2CNC(=O)C(=O)NCCc2ccccc2)c1 (stereo not drawn),i,-2.5
Cc1ccc(C)c(NC(=O)COc2cccc3c2CCN(Cc2ccccc2)C3=O)c1,i,2.5
Cn1c(=O)[nH]c(=O)c2c1nc(SCC(=O)Nc1ccccc1)n2Cc1ccccc1,i,-0.74
C#CCOC(=O)Nc1cccn(Cc2c(Cl)cccc2Cl)c1=O,i,-0.1
CCC(C)c1ccc(OCCCCN2CCOCC2)cc1 (stereo not drawn),i,1.7
COc1cc(NC(=O)c2ccccc2)c(OC)cc1NC(C)=O,i,0.17
COc1cccc(CN(C)C(=O)CNC(=O)c2sc3ccccc3c2Cl)c1OC,i,0.01
COCCNC(=S)N1CCN(C)CC1,i,0.8
CC(C)Cc1nc2sc3c(NCc4ccco4)ncnc3c2c2c1COC(C)(C)C2,i,-0.82
Cn1cccc1/C=C(\C#N)c1ccccc1,i,-0.3
CCOc1ccc(N2C(=O)CC(N(Cc3ccco3)C(C)=O)C2=O)cc1 (stereo not drawn),i,0.02
O=C1CC(c2cccc(Cl)c2)C(n2cncn2)C(=O)C1C1NCCc2ccccc21 (stereo not drawn),i,-1.2
CN(Cc1cccs1)C(=O)CCCc1c[nH]c2ccccc12,i,-1.6
Cc1cc(C(=O)NC(=S)Nc2ccccc2N2CCCC2)ccc1[N+](=O)[O-],i,0.51
COC(=O)c1ccccc1NC(=O)COc1ccccc1[N+](=O)[O-],i,3.2
COc1ccccc1N(Cc1ccccc1)S(=O)(=O)c1cccc(C(=O)Nc2ncccc2C)c1,i,1.4
CSc1ccccc1NC(=O)CN(C)CC(=O)Nc1ccccc1N1CCOCC1,i,1.9
O=[N+]([O-])c1ccc(N/N=C/c2cccc(O)c2O)cc1,i,2.1
Cc1cc(C(=O)CSc2ccccc2)cc(C)c1O,i,-0.1
Cc1cccc(NC(=O)c2c(C)nn(-c3ccccc3)c2Cl)c1,i,-1.7
CCOC(=O)c1[nH]cnc1C(=O)Nc1ccccn1,i,0.24
CS(=O)(=O)c1nc(S(=O)(=O)c2ccc(Cl)cc2)c(NCCCn2ccnc2)s1,i,0.03
Cc1c(OCC(=O)NCc2cccnc2)ccc2c3c(c(=O)oc12)CCCC3,i,0.12

# As entered above:
# Cn1c(=O)[nH]c(=O)c2c1nc(SCC(=O)Nc1ccccc1)n2Cc1ccccc1 in KCNQ2 inh baseline is listed with -0.74
# CCOc1ccc(N2C(=O)CC(N(Cc3ccco3)C(C)=O)C2=O)cc1 (stereo not drawn) in KCNQ2 inh baseline is listed with 0.02

# Reformatted with bars between the fields: part of the list above.
SMILES | KCNQ2 inh | KCNQ2 inh baseline
Cc1cc(C(=O)CSc2ccccc2)cc(C)c1O | i | -0.1
O=C1CC(c2cccc(Cl)c2)C(n2cncn2)C(=O)C1C1NCCc2ccccc21 (stereo not drawn) | i | -1.2
Cc1cccc(NC(=O)c2c(C)nn(-c3ccccc3)c2Cl)c1 | i | -1.7

# Next records
SMILES,KCNQ2 inh,KCNQ2 inh baseline
CCn1nc(C)c(CNCc2cn[nH]c2-c2cc3ccccc3o2)c1C,i,-0.56
COc1ccc(-c2cc(C(=O)OCC(=O)N(C)C3CCS(=O)(=O)C3)c3ccccc3n2)cc1OC (stereo not drawn),i,-1.5
O=C(Nc1ccc(F)cc1)C1CC(=O)N(Cc2ccco2)C1 (stereo not drawn),i,-2.4
COc1ccc(Cl)cc1C(=O)NNC(=O)c1cccc([N+](=O)[O-])c1,i,-1.8
CCc1nnc(NC(=O)Cc2ccc(OC)c(OC)c2)s1,i,-2.3
Cc1ccc(OCC(=O)n2nc(C)cc2C)c(Br)c1,i,0.01
N#C/C(=C/c1ccc(F)cc1)C(N)=S,i,-0.13
COc1ccc(S(=O)(=O)NCc2cc(-c3ccccc3Cl)no2)cc1,i,0.77
CSc1cnn(-c2ccccc2)c(=O)c1SC,i,-2.9
CCOc1ccc(-n2ccnc2SCC(=O)N2CCCc3ccccc32)cc1,i,2
CCOc1ccccc1NC(=O)c1ccc2[nH]c(C)c(C)c2c1,i,-0.03
O=C(COC(=O)c1cccc(F)c1)Nc1cccnc1Cl,i,0.25
CCOC(=O)c1ccc(NC(=S)N2CCN(C)CC2)cc1,i,2.4
O=C(COC(=O)c1cccnc1Cl)c1ccc2c(c1)OCCO2,i,1
COc1ccc(CSCC(=O)N/N=C/c2ccccc2O)cc1,i,0.09
CC(C)c1ccc(NC(=O)c2ccc3snnc3c2)cc1,i,1.7
CCOC(=O)C1(CC2CC2)CCN(Cc2cn[nH]c2-c2cccc(F)c2)CC1,i,-0.8
CCCc1cnc(N2CCN(S(C)(=O)=O)CC2)nc1,i,1.6
COCCCNc1nc2c(c(=O)n(C)c(=O)n2C)n1Cc1cccc(OC)c1,i,0.62
CC(=O)Nc1c2c3c(cccc3n(C)c1=O)C(=O)c1ccccc1-2,i,13
CCOC(=O)C1(C)/C(=N/Nc2ccccc2OC)C(=O)C(=O)N1c1ccccc1 (stereo not drawn),i,-0.07
Cc1ccc(N2CC(C(=O)Nc3nc4ccc(S(C)(=O)=O)cc4s3)CC2=O)cc1 (stereo not drawn),i,0.98
Cc1cccc2c1-c1sc(C(=O)NCCCN3CCCC(C)C3)cc1CO2 (stereo not drawn),i,-1.5
Cc1cccc(-c2noc(CCC(=O)NCc3ccco3)n2)c1,i,0.99
COc1ccc(C2CC3(O)NC(=O)C(C#N)(C3C)C2(C#N)C#N)cc1 (stereo not drawn),i,4.6
COc1cccc(F)c1C(C[N+](=O)[O-])c1c(N)n(C)c(=O)n(C)c1=O (stereo not drawn),i,0.22
CS(=O)(=O)N1CCN(C(=O)c2ccncc2)CC1,i,-0.04
Cc1ccc(S(=O)(=O)N2CCN(C(=O)COC(=O)COc3ccccc3)CC2)cc1,i,2.4
Cn1ccnc1CN1CCN(C(=O)c2cc(COc3ccc(F)c(F)c3)on2)CC1,i,-0.96
CNC(=S)N/N=C(\C)c1ccc2c(c1)OCCO2,i,0.21
Cc1coc2c(C)c3oc(=O)c(CCC(=O)N4C[C@H]5C[C@@H](C4)c4cccc(=O)n4C5)c(C)c3cc12,i,2.4
CC(=O)c1sc(NC(=O)c2ccccc2F)nc1C,i,-0.01
Cc1ccc(CN(CC(O)COc2cccc3[nH]cc(C)c23)C(C)(C)C)cc1 (stereo not drawn),-6.7*,0.49*
O=C(NCCc1c[nH]c2ccccc12)/C(=C\c1cccnc1)NC(=O)c1cccs1,i,1.5
Cc1cccc(OC(C)C(=O)Nc2ccccc2C(=O)N2CCCCC2)c1 (stereo not drawn),i,0.22
COc1ccc(N=C2SC(C(N)=O)CC(=O)N2CCc2ccc(OC)c(OC)c2)cc1 (stereo not drawn),i,-0.03
O=C(O)COc1cnc2ccccc2n1,i,1.4
CSCc1c(C(=O)NC2CCCc3ccccc32)oc2ccccc12 (stereo not drawn),i,0.63
C=CC[C@@H]1C=C[C@H](O/N=C/c2ccc(C(=O)N3[C@H](c4ccc(C)cc4)[C@@H](C)CC[C@H]3C(=O)OC)cc2)[C@@H](CO)O1,-6.1*,-0.4*
Cc1nc2sccn2c(=O)c1S(=O)(=O)NCCc1ccc(Cl)cc1,i,0.68
CC(=O)OCP(C)(=O)COC(C)=O,i,-0.09
CC(C)(C)c1ccc(C(=O)N2CCC(C(=O)NCc3ccncc3)CC2)cc1,i,0.4
O=C(COc1ccc(Cl)cc1)Nc1cccc(S(=O)(=O)NC2=NCCCCC2)c1,i,-0.42

# Source: PubChem
